CDC25B-CDK2 inh = human CDC25B-CDK2/CyclinA binding inhibition; P30305+P24941; HTRF CDC25B-CDK2/CyclinA binding, anti-His/anti-Flag; stronger effect = higher value; z-score (concentration not given with the values); actives 0.72% (n = 94,000);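 note: score is relative to mean and SD of negative controls; strong numbers were not always called active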
HIV TAR-Tat = HIV-1 TAR-Tat binding disruption. AID 1259389. z-score (no concentration beside the values). actives 0.6% (n = 100,000). HIV-1 TAR RNA, Tat peptide displacement FRET; stronger effect = higher value;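 note: score is relative to mean and SD of negative controls; some compounds called inactive have numbers as strong as hits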
* marks the source's active call; other numbers are inactive results; · = not tested or not shown.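 Rule for the calls: active = z-score from 3 up in half or more of its runs; inactive = the rest.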

SMILES | CDC25B-CDK2 inh | HIV TAR-Tat
CC(C)CCCC(C)[C@H]1CCC2C3CC[C@@H]4C[C@H](O)CC[C@]4(C)C3CC[C@@]21C (some centres undefined) | · | 0.4
COc1ccc(-c2cc(C(F)(F)F)n3nc(C(=O)NCC4CCCO4)c(Cl)c3n2)cc1OC (centres undefined) | -12 | 1.3
CCC1Sc2ccc(S(=O)(=O)CCC(=O)Nc3ccc(F)cc3F)cc2NC1=O (centres undefined) | · | -1.8
C=CCNC(=O)N1CC(Oc2ccc(Cl)cc2)C1 | -1.4 | ·
CC1=C(c2ccccc2)S(=O)(=O)N=C1Nc1cccnc1 | -1.7 | -0.8
COc1ccc(-c2cc3c4c(C)n(Cc5ccc6c(c5)OCO6)c(C)c4c(C)nn3c2)cc1 | -1.7 | -0.06
CCOC(=O)c1cn(CC)c2cc(N3CCCC3)c(F)cc2c1=O | -0.73 | ·
CN1C(C(=O)NCc2ccc(F)cc2)=CC(c2cccs2)=NS1(=O)=O | -2.2 | -2.8
COc1ccccc1NC(=O)c1ccccc1Cl | -0.3 | ·
O=C(CCCN1C(=O)c2ccccc2C1=O)Nc1ccccc1C(=O)N1CCCCC1 | -1.3 | ·
O=C(Nc1ccc2nc3n(c(=O)c2c1)CCCCC3)C(=O)N(Cc1ccco1)C1CCCCC1 | -1 | ·
CCCC12CN3CC(C)(CN(C1)C3c1cccc(Br)c1)C2=O (centres undefined) | -1 | ·
Cc1nn(C)c(C)c1CNC(=O)NC1CCCC1 | · | -0.19
CC1CCCN(C(=O)c2c3c(nc4ccccc24)C(=O)N(C2CCCCC2)C3)C1 (centres undefined) | · | -0.48
CCNc1nc(NCC)nc(-n2nc(C)cc2C)n1 | 0.22 | 0.67
c1ccc(CSCc2nc3ccccc3[nH]2)cc1 | -0.5 | 1.2
O=C(NC(Sc1ncccn1)C(=O)c1ccccc1)c1ccccc1 (centres undefined) | -1.7 | 1.7
COc1ccc(-c2oc3ccccc3c(=O)c2O)cc1OC | · | 0.5
CCCn1c(CCC(=O)Nc2ccc3c(c2)OCO3)nc2cccnc21 | -1.9 | 0.79
Cn1c(Sc2sccc2[N+](=O)[O-])nnc1C(F)(F)F | -2.9 | ·
O=c1c2c(nc3nc(CCc4ccccc4)[nH]n13)CCC2 | 1.7 | 0.71
COc1ccc(-n2cc[nH]c(=O)c2=O)cc1OC | -0.98 | 3.4
CCCC(=O)Nc1nnc(S(=O)(=O)N2CCC(C)CC2)s1 | -1.4 | 2
Cc1noc2ncnc(N3CCC(C(N)=O)CC3)c12 | · | 0.83
COCCCNC(=O)C(=O)NCc1n[nH]c(=O)c2ccccc12 | · | 1.2
O=C(Nc1noc2ccccc12)C1CC1 | -2.1 | -0.59
COC(=O)c1ccc([C@@H]2Nc3ccc(F)cc3[C@@H]3C=CC[C@@H]32)cc1 | -0.78 | 1.9
Nc1c(-c2nc(-c3ccc4c(c3)OCO4)no2)nnn1-c1ccccc1Cl | · | 0.71
O=C(O)c1cc(NC(=O)c2ccc3c(c2)C(=O)N(CC2CCCO2)C3=O)cc(C(=O)O)c1 (centres undefined) | -0.89 | ·
Cc1nn(-c2ccccc2)c(OC(=O)C(C)(C)C)c1S(=O)(=O)c1ccccc1 | -1.1 | ·
Cc1ccc(C2CC(C(F)(F)F)n3nc(C(=O)N4CCCCC4)c(Cl)c3N2)cc1 (centres undefined) | -0.9 | 0.58
O=C(c1ccco1)N1CCN=C1SCc1cccnc1 | -1.2 | ·
O=C1N(c2ccc(-c3ccccc3)cc2)C(c2ccccc2)N2CCCN12 (centres undefined) | -1.2 | 1.8
CCOC(=O)c1c(S(=O)(=O)NC(C)CC)c(C)n(C)c1C (centres undefined) | · | 1.2
Clc1ccc(OCc2nnc(-c3ccccc3Cl)o2)cc1 | -1.8 | 2.6
Cc1oc(-c2cccc(Cl)c2)nc1CSc1nnc(C)n2c1cc1occc12 | · | -1.4
CCOC(=O)c1oc2ccc(S(=O)(=O)Nc3ccc4[nH]c(=O)sc4c3)cc2c1C | · | 1.5
Cc1nnc(Oc2ccc(F)cc2)c2ccccc12 | · | 2.3
CC1CCCC(NC(=O)Cn2ccc3cc(S(=O)(=O)N4CCCC4)ccc32)C1C (centres undefined) | · | 0.79
CC(C)C[C@H](NS(=O)(=O)c1ccc(Br)cc1)C(=O)O | -1.4 | 0.63
Cc1ccc(-c2noc3ncnc(NCCN(C)Cc4ccccc4)c23)cc1 | · | 2.4
COC(=O)c1ccc2nc(SCc3cccc(F)c3)[nH]c2c1 | -1.2 | -1.3
CCCOc1ccc(C2c3c(oc4cc(C)c(C)cc4c3=O)C(=O)N2CCCN(C)C)cc1 (centres undefined) | -1.4 | 0.12
COCCOC(=O)C1=C(C)NC2=C(C(=O)CC(c3ccccc3)C2)C1c1cccc(OC)c1OC (centres undefined) | -2.7 | 1.3
COc1ccc(NS(=O)(=O)c2ccc3c(c2)NC(=O)CC(=O)N3)c(OC)c1 | -1.1 | ·
Cc1ccc(C)n1-c1nnc(N2CCCC(C(=O)NCc3ccco3)C2)s1 (centres undefined) | -0.11 | 1.4
CCCN(CCC)c1nc(SC)nc(-c2ccc(C)cc2)c1C#N | -0.52 | 0.92
COCCCNC(=O)CCc1c(C)nc2c(c(C)nn2C(C)(C)C)c1C | -1.6 | 1.1
COc1ccc(OC)c(NC(=O)CCCn2sc3ccccc3c2=O)c1 | -2 | 4.5
CN(C)c1ccc(C2CC(c3ccc(Cl)cc3)=NN2C(=O)CCC(=O)O)cc1 (centres undefined) | -0.29 | ·
CCSCCOC(=O)C1=C(C)NC2=C(C(=O)CCC2)C1c1ccc(Cl)cc1 (centres undefined) | -1.7 | 0.77
CC(=O)N1N=C(c2nc3nc(C)cc(C)n3n2)OC1c1cccc(Cl)c1 (centres undefined) | · | 2.4
O=C(O)CCc1ccc2c(c1)OCO2 | -2.4 | ·
COC(=O)C1C(=O)CC(C)(O)C(C(=O)OC)C1c1ccc(OC)cc1 (centres undefined) | -1.2 | 0.98
CCCCOC(=O)C1=C(C)NC2=C(C(=O)CCC2)C1c1ccc(OCC)c(OC)c1 (centres undefined) | -2.1 | 3.2
O=c1cc(-c2ccc(F)cc2)nc(N2CCN(Cc3ccc4c(c3)OCO4)CC2)[nH]1 | · | -0.01
CCN(CC)c1ccc(C2C(C#N)=C(C)NC3=C2C(=O)CC(C)(C)C3)cc1 (centres undefined) | -2.1 | 0.23
Cn1nc(C2CC2)cc1NC(=O)COc1ccc(Cl)cc1Cl | -1.4 | ·
O=C(CN1C(=O)CCSc2ccc(S(=O)(=O)N3CCOCC3)cc21)NC1CCCCC1 | · | 1.3
Nc1nnc(CCS(=O)(=O)c2ccc(Cl)cc2)s1 | -0.74 | -0.55

14 entries already listed, arranged by SMILES length, ascending.
SMILES | CDC25B-CDK2 inh | HIV TAR-Tat
O=C(O)CCc1ccc2c(c1)OCO2 | -2.4 | ·
O=C(Nc1noc2ccccc12)C1CC1 | -2.1 | -0.59
C=CCNC(=O)N1CC(Oc2ccc(Cl)cc2)C1 | -1.4 | ·
Nc1nnc(CCS(=O)(=O)c2ccc(Cl)cc2)s1 | -0.74 | -0.55
CCCN(CCC)c1nc(SC)nc(-c2ccc(C)cc2)c1C#N | -0.52 | 0.92
O=C(NC(Sc1ncccn1)C(=O)c1ccccc1)c1ccccc1 (centres undefined) | -1.7 | 1.7
CCCn1c(CCC(=O)Nc2ccc3c(c2)OCO3)nc2cccnc21 | -1.9 | 0.79
Cc1ccc(C)n1-c1nnc(N2CCCC(C(=O)NCc3ccco3)C2)s1 (centres undefined) | -0.11 | 1.4
Cc1oc(-c2cccc(Cl)c2)nc1CSc1nnc(C)n2c1cc1occc12 | · | -1.4
Nc1c(-c2nc(-c3ccc4c(c3)OCO4)no2)nnn1-c1ccccc1Cl | · | 0.71
CCC1Sc2ccc(S(=O)(=O)CCC(=O)Nc3ccc(F)cc3F)cc2NC1=O (centres undefined) | · | -1.8
CC1CCCN(C(=O)c2c3c(nc4ccccc24)C(=O)N(C2CCCCC2)C3)C1 (centres undefined) | · | -0.48
CCCCOC(=O)C1=C(C)NC2=C(C(=O)CCC2)C1c1ccc(OCC)c(OC)c1 (centres undefined) | -2.1 | 3.2
COC(=O)c1ccc([C@@H]2Nc3ccc(F)cc3[C@@H]3C=CC[C@@H]32)cc1 | -0.78 | 1.9

The list goes on:
SMILES | CDC25B-CDK2 inh | HIV TAR-Tat
O=C(CCc1nnc2ccc(NCc3ccc4c(c3)OCO4)nn12)NCc1cccnc1 | · | 1.6
Cc1nc(-c2ccc(C)c(S(=O)(=O)NCCCc3ccccc3)c2)cs1 | · | 3.2
COc1ccc2cc3c(nc2c1)N(C(=O)C(C)(C)C)CC3 | 2.1 | 0.15
O=C1CN(Cc2cccc(Br)c2)S(=O)(=O)c2ccccc2N1Cc1ccccc1F | · | 2.5
COc1ccc(C2C(=O)N(C3CCC(C)CC3)CC(=O)N2Cc2ccco2)cc1OC (centres undefined) | 0.41 | ·
COc1ccc(CN2CCc3nc(Nc4ccc5c(c4)OCO5)ncc3C2)c(OC)c1 | · | 0.11
CC(C)(C)C(=O)Cn1c(=O)n(CC2CCC(C(=O)NC3CCCC3)CC2)c(=O)c2ccccc21 (centres undefined) | 0.75 | 0.06
O=c1cc(-c2ccccc2)nc2nc(C(F)(F)F)[nH]n12 | 0.35 | 0.15
Cc1cc(Cl)ccc1S(=O)(=O)NCCCn1c(C(F)(F)F)nc2cccnc21 | · | -6
O=C(c1ccncc1)N1CCN(Cc2ccco2)CC1 | -0.89 | -0.75
Cc1ccc(C23CC4CC(CC(C(=O)NC5=NCCS5)(C4)C2)C3)cc1 | -0.74 | ·
Cc1ncc([N+](=O)[O-])n1CC(O)CCl (centres undefined) | · | -0.57
CCS(=O)(=O)N1CC=C(c2c(C)n(CC(=O)N3CCCC3)c3ccccc23)CC1 | -0.9 | -5.4
O=c1oc2c(-c3ccc(Cl)cc3)cc(O)cc2s1 | -0.14 | 1.2
COc1ccccc1C1=Nc2cccc3cccc(c23)N1 | 3.3 | 2.3
N#Cc1c(-c2ccccc2)nc(SCc2ccccc2)[nH]c1=O | -1.4 | ·
C=CCOC(=O)C1=C(C)Nc2nc(SCC(C)C)[nH]c(=O)c2C1c1ccc(F)cc1 (centres undefined) | -0.57 | 1.3
COc1ccc(OC)c(C2NC(=S)NC3=C2CCc2ccccc23)c1 (centres undefined) | -1 | ·
Cc1ccc2nc(C3=C(O)CN(c4cccc(C(=O)O)c4)C3=N)[nH]c2c1 | -3.1 | 0.01
Cc1nn(C)c(C)c1NC(=O)c1ccccc1NC(=O)c1cccs1 | -0.45 | ·
CCOC(=O)c1ccc2ncc(C(=O)OCC)c(NC3CC(C)(C)NC(C)(C)C3)c2c1 | -0.09 | ·
CCOC(=O)c1[nH]c2ccc(OC)cc2c1NC(=O)CNCc1ccccc1 | -1.5 | ·
Cc1cc2nc(COC(=O)c3ccccc3Cl)cc(=O)n2o1 | · | 0.42
Cn1nccc1NC(=O)/C(C#N)=C/c1cccc(Cl)c1 | -0.23 | ·
CCCCSc1nnc(Cn2c(=O)sc3ccccc32)n1C | -0.87 | ·
COC(=O)c1c(SCC(=O)Nc2ccc(F)cc2F)[nH]c2ccccc2c1=O | · | -0.61
Cc1cc(N2CCC(C)CC2)n2nc(C)c(-c3ccc(Cl)cc3)c2n1 | 0.81 | 1.9
CC1CCN(C(=O)Cn2cc(SCC(=O)N3CCCCC3)c3ccccc32)CC1 | · | 0.87
Cc1cccc(C)c1Nc1c(-c2cccc(O)c2)nc2sccn12 | -2.2 | -0.01
O=C(O)c1ccc(CN2C(=O)CCn3nc(-c4ccc(Cl)cc4)cc32)cc1 | -0.59 | 0.66
O=C(O)c1ccccc1C(=O)Nc1nc(-c2ccc(Br)cc2)cs1 | 0 | ·
C=CCn1c(-c2ccc(Cl)cc2)n[nH]c1=S | -1.9 | ·
Cc1cc(S(=O)(=O)[C@H]2CS(=O)(=O)C[C@@H]2N2CCN(c3ccc(F)cc3)CC2)ccc1F | -2 | 1.7
CC1(C)C(=O)N(CC(=O)NC2CCCc3ccccc32)c2ccccc21 (centres undefined) | · | 0.52
Cc1cccn2c(=O)c3cc(C#N)c(=O)n(-c4ccccc4F)c3nc12 | 0.51 | -2.4
CCOC(=O)c1c(S(=O)(=O)Nc2ccc(C)cn2)c(C)n(C)c1C | · | 2.1
O=S(=O)(Nc1cccc(-c2nnc(-c3ccccc3)o2)c1)c1ccc(F)cc1 | · | 0.28
O=S1(=O)c2ccccc2N(Cc2ccc(F)cc2)c2ccccc21 | · | -0.25
Cc1c[nH]c(=S)c(C#N)c1 | -1.6 | ·
O=C(c1cccs1)N1c2nc(-c3cccnc3)nn2C2(CCCCC2)[C@@H]2CCCC[C@@H]21 | 0.41 | 0.38
COCCOC(=O)c1c(C)oc2ccc(O)cc12 | -1.8 | -0.36
Cc1cc(-n2cc(I)c(=O)[nH]c2=O)nc(-c2ccccc2)n1 | -7.2 | ·
CN1C(=O)C(C)(C)c2cc(S(=O)(=O)Nc3ccc(F)c(Cl)c3)ccc21 | · | 1.3
Cc1cc2nc(COC(=O)c3ccco3)cc(=O)n2o1 | · | -0.16
CC1(C)Cc2nc3c(cc2CO1)c(=O)n(Cc1ccco1)c(=O)n3Cc1ccccc1 | -1.7 | 0.61
CCOc1ccsc1C(=O)Nc1ccc(OC(F)(F)F)cc1 | 0.32 | ·
Cc1ccc(Cl)cc1NS(=O)(=O)c1cc2[nH]c3c(c2cc1C)C(=O)CCC3 | · | 0.44
CCOc1ccc(Nc2nc3ccccc3n3c(C)nnc23)cc1 | 0.1 | 2.3
O=C(CSc1nc(-c2ccco2)nc2cc(=O)[nH]n12)NCc1nc2ccccc2[nH]1 | · | 0.42
O=S(=O)(CCN1CCC(C(F)(F)F)CC1)c1ccccc1 | 0.11 | ·
COc1ccc(S(=O)(=O)N2CCN(c3ncnc4c3nnn4-c3ccc(F)cc3)CC2)cc1 | · | 0.24
CN(C)c1nc(C(=O)O)nc(N2CCOCC2)n1 | 0.86 | 0.59
CCOc1c(Nc2ccc(C)cc2Br)c(=O)c1=O | · | 0.64

Assay outcomes from PubChem BioAssay.
